# Assay outcomes: PubChem BioAssay, Broad Institute
# UUG fidelity – alters start codon recognition fidelity in yeast; S. cerevisiae UUG-firefly luciferase reporter, luminescence/redox ratio; activity score, % at 18.7 µM; 0.13% of 350,000 active; AID 602363;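 active = replicate mean at a twofold rise or more, about +100% in these data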;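 note: firefly luciferase made from a UUG start codon reports start codon fidelity; reporter light over untreated wells divided by growth signal over untreated wells; some hits fall short of that in this replicate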
# * marks the source's active call; other numbers are inactive results.
UUG fidelity	Molecule
-2	C[C@@H]1CN([C@@H](C)CO)C(=O)c2cc(NS(=O)(=O)c3cn(C)cn3)ccc2O[C@H]1CN(C)C
15	O=C(c1ccccc1F)N1CC[C@@H]2[C@H](CO)Nc3ccc(-c4ccccc4)cc3[C@@H]21
4	C[C@@H]1CN([C@H](C)CO)C(=O)c2cccc(NC(=O)C3CCOCC3)c2O[C@H]1CN(C)C
3	C[C@@H]1CN([C@H](C)CO)C(=O)c2cccc(NC(=O)c3nc4ccccc4s3)c2O[C@@H]1CN(C)Cc1ccc(C(F)(F)F)cc1
7	CCCC#Cc1ccc([C@@H]2[C@H](CO)N3CCCCN(S(=O)(=O)c4ccccc4C)C[C@@H]23)cc1
-10	COCC(=O)Nc1ccc2c(c1)C(=O)N(C)C[C@H](OC)[C@H](C)CN(Cc1cccnc1)[C@@H](C)CO2
2	CO[C@@H]1CN(C)C(=O)c2ccc(NC(=O)Nc3ccccc3)cc2OC[C@@H](C)N(C(=O)Nc2c(C)noc2C)C[C@@H]1C
5	COc1cccc(S(=O)(=O)N2CCCCN3[C@H](CO)[C@@H](c4ccc(-c5cccnc5)cc4)[C@@H]3C2)c1
-4	C[C@H]1CN([C@@H](C)CO)C(=O)c2cc(NC(=O)Cc3cn(C)c4ccccc34)ccc2O[C@@H]1CN(C)C(=O)Nc1ccc2c(c1)OCO2
-3	CN1C(=O)c2cc(NC(=O)C3CC3)ccc2OC[C@@H]2O[C@@H](CC(=O)NC3CCC3)CC[C@@H]21
-5	CN(C)C(=O)c1cccc(-c2ccc3c(c2)[C@@H]2[C@@H](CCN2C(=O)c2ccncc2)[C@@H](CO)N3C)c1
-2	CO[C@@H]1CN(C)C(=O)c2cc(NC(=O)C3CC3)ccc2OC[C@H](C)N(Cc2cccc(F)c2)C[C@H]1C
-20	C[C@H](CO)N1C[C@H](C)[C@H](CN(C)C)Oc2ccc(NC(=O)Cc3ccccc3)cc2CC1=O
6	CO[C@@H]1CN(C)C(=O)c2ccc(NC(=O)C3CCOCC3)cc2OC[C@H](C)N(C(C)=O)C[C@H]1C
31	O=C(Nc1ccc(F)cc1)N1C[C@H]2[C@@H](c3ccccc31)[C@H](CO)N2C(=O)c1ccccc1

# Seven entries from above, sorted by the number in UUG fidelity, ascending.
canonical_smiles | UUG fidelity
C[C@H](CO)N1C[C@H](C)[C@H](CN(C)C)Oc2ccc(NC(=O)Cc3ccccc3)cc2CC1=O | -20
COCC(=O)Nc1ccc2c(c1)C(=O)N(C)C[C@H](OC)[C@H](C)CN(Cc1cccnc1)[C@@H](C)CO2 | -10
CO[C@@H]1CN(C)C(=O)c2ccc(NC(=O)Nc3ccccc3)cc2OC[C@@H](C)N(C(=O)Nc2c(C)noc2C)C[C@@H]1C | 2
C[C@@H]1CN([C@H](C)CO)C(=O)c2cccc(NC(=O)C3CCOCC3)c2O[C@H]1CN(C)C | 4
CO[C@@H]1CN(C)C(=O)c2ccc(NC(=O)C3CCOCC3)cc2OC[C@H](C)N(C(C)=O)C[C@H]1C | 6
O=C(c1ccccc1F)N1CC[C@@H]2[C@H](CO)Nc3ccc(-c4ccccc4)cc3[C@@H]21 | 15
O=C(Nc1ccc(F)cc1)N1C[C@H]2[C@@H](c3ccccc31)[C@H](CO)N2C(=O)c1ccccc1 | 31

# (next part)
UUG fidelity	Molecule
6	CN(C)C(=O)c1cccc(-c2ccc3c(c2)[C@H]2[C@H](CCN2C(=O)Nc2cccc(F)c2)[C@@H](CO)N3C)c1
-12	CN1CCN(C(=O)C[C@H]2CC[C@H]3[C@@H](COC[C@H](O)CN3C(=O)C3CCCC3)O2)CC1
6	CO[C@H]1CN(C)C(=O)c2ccc(NS(=O)(=O)CC(F)(F)F)cc2OC[C@H](C)N(Cc2nccs2)C[C@H]1C
4	CO[C@H]1CN(C)C(=O)c2ccc(NC(C)=O)cc2OC[C@@H](C)N(C(=O)c2ccncc2)C[C@@H]1C
-18	O=C(c1cccnc1)N1CCCCN2[C@H](C1)[C@@H](c1ccc(C#Cc3cccnc3)cc1)[C@@H]2CO
20	COc1ccc(CN(C)C[C@H]2Oc3ccc(NS(=O)(=O)c4ccccc4)cc3C(=O)N([C@H](C)CO)C[C@@H]2C)cc1
17	Cc1cccc(S(=O)(=O)N2CCCCN3[C@H](CO)[C@@H](c4ccc(C#CC(C)C)cc4)[C@H]3C2)c1
11	CC(C)NC(=O)N1C[C@@H]2[C@H](c3ccccc31)[C@H](CO)N2C(=O)c1ccncc1
-4	CCCNC(=O)N1C[C@@H](C)[C@H](OC)CN(C)C(=O)c2ccc(NC(=O)CCC)cc2OC[C@H]1C
9	CNC(=O)C[C@@H]1CC[C@@H]2[C@H](COc3ccc(NC(=O)Nc4cccc(C)c4)cc3C(=O)N2C)O1
-6	C[C@@H]1CN([C@H](C)CO)C(=O)c2cccc(NC(=O)C3CCOCC3)c2O[C@@H]1CN(C)Cc1ccc(C(F)(F)F)cc1
15	COc1cccc(NC(=O)N2C[C@@H](O)COC[C@@H]3O[C@H](CC(=O)NC4CCCC4)CC[C@H]32)c1
-8	C[C@@H]1CN([C@H](C)CO)C(=O)c2cccc(NS(=O)(=O)c3cccs3)c2O[C@@H]1CN(C)S(=O)(=O)c1ccccc1
-20	CN1c2ccc(C#Cc3cccnc3)cc2[C@H]2[C@H](CCN2S(=O)(=O)c2ccccc2)[C@@H]1CO
-5	CCN(C[C@@H]1N[C@@H](CO)[C@H]1c1ccc(-c2cccc(F)c2)cc1)C(=O)CN(C)C

# Looked up by compound from above:
UUG fidelity	Molecule
-12	CN1CCN(C(=O)C[C@H]2CC[C@H]3[C@@H](COC[C@H](O)CN3C(=O)C3CCCC3)O2)CC1
17	Cc1cccc(S(=O)(=O)N2CCCCN3[C@H](CO)[C@@H](c4ccc(C#CC(C)C)cc4)[C@H]3C2)c1
-18	O=C(c1cccnc1)N1CCCCN2[C@H](C1)[C@@H](c1ccc(C#Cc3cccnc3)cc1)[C@@H]2CO
9	CNC(=O)C[C@@H]1CC[C@@H]2[C@H](COc3ccc(NC(=O)Nc4cccc(C)c4)cc3C(=O)N2C)O1

# Next compounds
UUG fidelity	Molecule
-8	OC[C@@H]1[C@H](c2ccc(C#Cc3ccccc3F)cc2)[C@@H]2CN(CC3CCOCC3)CCCCN12
-10	CCCN1C[C@H](C)[C@H](OC)CN(C)C(=O)c2cc(NC(=O)Nc3c(C)noc3C)ccc2OC[C@@H]1C
1	CC(=O)N1[C@@H](CO)[C@H](c2ccc(-c3ccccc3)cc2)[C@@H]1CNC(=O)C1CC1
-6	C[C@@H](NC(=O)[C@H]1[C@H](CO)[C@H]2Cn3c(ccc(-c4ccccc4)c3=O)[C@H]2N1C)c1ccccc1
2	CN1CCN(C(=O)C[C@H]2CC[C@H]3[C@@H](COC[C@@H](O)CN3C(=O)Nc3cc(Cl)cc(Cl)c3)O2)CC1
2	C[C@H]1CN([C@@H](C)CO)C(=O)c2cc(NC(=O)Cn3cnnn3)ccc2O[C@@H]1CN(C)C
-13	O=C(C[C@H]1C[C@H]2c3cc(NC(=O)Nc4ccccc4F)ccc3O[C@H]2[C@H](CO)O1)NCCc1ccccc1
-3	COC(=O)C[C@H]1CC[C@H]2[C@H](COc3ccc(NC(=O)C4CCOCC4)cc3C(=O)N2C)O1
-13	COc1ccc(CN(C)C[C@@H]2Oc3ccc(NC(=O)c4ccncc4)cc3C(=O)N([C@@H](C)CO)C[C@H]2C)cc1
-9	O=C(Cc1ccccc1)N1CC[C@@H]2[C@H]1c1cc(-c3ccccc3)ccc1N[C@@H]2CO
1	C[C@@H](NC(=O)[C@@H]1[C@@H](CO)[C@@H]2Cn3c(cccc3=O)[C@H]1N2Cc1ccccc1)c1ccccc1
10	O=C(C[C@@H]1CC[C@@H]2[C@H](COC[C@H](O)CN2S(=O)(=O)c2cccc(Cl)c2)O1)Nc1ccccc1
12	O=C(Nc1ccc(F)cc1)N1CCCCN2[C@H](CO)[C@@H](c3ccc(-c4cccc(F)c4)cc3)[C@@H]2C1
22	CN(C)CC#Cc1ccc([C@@H]2[C@H](CO)N3CCCCN(C(=O)CN(C)C)C[C@@H]23)cc1
1	C[C@@H]1CN([C@H](C)CO)C(=O)c2cccc(NS(=O)(=O)c3ccccc3)c2O[C@@H]1CN(C)CC1CC1
-3	C[C@H](CO)N1C[C@H](C)[C@H](CN(C)S(=O)(=O)c2cn(C)cn2)Oc2c(NC(=O)c3nc4ccccc4s3)cccc2C1=O
-6	C[C@H]1CN([C@@H](C)CO)C(=O)c2cc(NS(=O)(=O)c3ccc(Cl)cc3)ccc2O[C@H]1CN(C)C(=O)Nc1ccc2c(c1)OCO2
-9	C[C@@H](NC(=O)C[C@@H]1CC[C@H]2[C@@H](COC[C@H](O)CN2C(=O)Nc2cc(Cl)cc(Cl)c2)O1)c1ccccc1
-1	C[C@@H]1CN([C@@H](C)CO)C(=O)c2cccc(NS(=O)(=O)c3cn(C)cn3)c2O[C@H]1CN(C)Cc1ccc(Oc2ccccc2)cc1
52	O=C(CN1CCOCC1)N1CCCCN2[C@H](C1)[C@@H](c1ccc(C#Cc3ccccc3)cc1)[C@@H]2CO
-3	COCC(=O)Nc1ccc2c(c1)C(=O)N(C)C[C@@H](OC)[C@@H](C)CN(C(=O)C1CCCC1)[C@@H](C)CO2
-14	Cc1ccc(S(=O)(=O)N2CC[C@@H]3[C@H](CO)Nc4ccc(-c5ccc(C#N)cc5)cc4[C@@H]32)cc1
3	O=C(C[C@H]1CC[C@H]2[C@@H](COC[C@@H](O)CN2S(=O)(=O)c2ccc(Cl)cc2)O1)NCc1ccc(Cl)c(Cl)c1
-8	O=C(C[C@@H]1CC[C@@H]2[C@H](COC[C@H](O)CN2C(=O)c2ccccc2)O1)NCc1cccc(F)c1
1	CCC(=O)N1[C@@H](CO)[C@@H]2c3ccccc3N(C(=O)c3ccccc3F)C[C@@H]21
-17	O=C(NCC1CCCCC1)[C@H]1[C@H](CO)[C@H]2Cn3c(ccc(-c4ccc(F)cc4)c3=O)[C@@H]1N2
-14	COc1ccccc1-c1ccc2c(c1)[C@@H]1[C@@H](CCN1S(=O)(=O)c1ccc(C)cc1)[C@H](CO)N2
4	COCC(=O)N1C[C@H]2[C@@H](c3ccccc31)[C@H](CO)N2C(=O)C1CCOCC1
6	COc1cccc(C(=O)N2C[C@@H]3[C@H](c4ccccc42)[C@@H](CO)N3Cc2ccccc2Cl)c1
6	CN(C)CC#Cc1ccc([C@H]2[C@H]3CN(CC4CCOCC4)CCCCN3[C@H]2CO)cc1
10	C[C@H](CO)N1C[C@H](C)[C@@H](CN(C)CC2CC2)Oc2ccc(NS(=O)(=O)c3ccc(F)cc3)cc2CC1=O
-5	Cc1ccc(S(=O)(=O)N(C)C[C@H]2Oc3ccc(NC(=O)Nc4ccccc4)cc3CC(=O)N([C@@H](C)CO)C[C@@H]2C)cc1
1	CC(C)NC(=O)N1C[C@H]2[C@@H](c3ccccc31)[C@H](CO)N2C(=O)c1ccc(F)cc1
1	CCCC(O)C#Cc1cnc2c(c1)C(=O)N([C@H](C)CO)C[C@H](C)[C@H](CN(C)S(=O)(=O)c1ccc(C#N)cc1)O2 (stereo not given in full)
-25	O=C(C[C@H]1C[C@@H]2c3cc(NS(=O)(=O)c4ccc(F)cc4)ccc3O[C@@H]2[C@H](CO)O1)NCc1ccncc1
-19	CCS(=O)(=O)Nc1ccc2c(c1)C(=O)N(C)[C@@H]1CC[C@@H](CC(=O)NCCCN3CCOCC3)O[C@H]1CO2
15	CO[C@H]1CN(C)C(=O)c2ccc(NC(=O)Nc3cccc(Cl)c3)cc2OC[C@@H](C)N(C(=O)Nc2c(C)noc2C)C[C@@H]1C
-3	C[C@H]1CN([C@@H](C)CO)C(=O)c2cc(NC(=O)CCC(F)(F)F)ccc2O[C@H]1CN(C)S(=O)(=O)c1ccc(Cl)cc1
-16	Cc1ccc(S(=O)(=O)Nc2ccc3c(c2)C(=O)N([C@H](C)CO)C[C@H](C)[C@H](CN(C)C(=O)Nc2ccccc2)O3)cc1
13	COc1ccc(S(=O)(=O)N2CCCCN3[C@@H](CO)[C@H](c4ccc(C#CCC(C)C)cc4)[C@@H]3C2)cc1
7	C[C@@H]1CN([C@@H](C)CO)C(=O)c2cc(NC(=O)CCN3CCOCC3)ccc2O[C@H]1CN(C)S(=O)(=O)c1ccc(Cl)cc1
13	CN(C)C(=O)c1ccc(-c2ccc([C@H]3[C@H](CO)N4CCCCN(C(=O)C5CCCC5)C[C@@H]34)cc2)cc1
-7	CCC(=O)N1[C@H](CNC(=O)COC)[C@@H](c2ccc(-c3ccccc3)cc2)[C@@H]1CO
-3	CCC(=O)N1CCCCN2[C@H](C1)[C@@H](c1ccc(C#CCOC)cc1)[C@@H]2CO
-3	CNC[C@@H]1Oc2c(NS(=O)(=O)c3cccs3)cccc2C(=O)N([C@H](C)CO)C[C@@H]1C
-4	C[C@@H]1CN([C@@H](C)CO)C(=O)c2cc(NC(=O)Cn3cnnn3)ccc2O[C@H]1CN(C)C(=O)Nc1ccc(C(F)(F)F)cc1
9	O=S(=O)(c1ccccc1)N1C[C@@H]2[C@H](c3ccccc31)[C@H](CO)N2Cc1ccc2c(c1)OCO2
-1	C[C@@H]1CN([C@H](C)CO)C(=O)c2cccc(NC(=O)c3cnccn3)c2O[C@H]1CN(C)Cc1ccncc1
0	Cc1ccccc1S(=O)(=O)N1CC[C@@H]2[C@H]1c1cc(C#Cc3ccccc3)ccc1N[C@@H]2CO
-24	O=C(NCC(F)(F)F)[C@@H]1[C@@H](CO)[C@@H]2Cn3c(cccc3=O)[C@@H]2N1C(=O)C1CCC1
3	COc1ccccc1-c1ccc([C@@H]2[C@H]3CN(C(=O)CN4CCOCC4)CCCCN3[C@H]2CO)cc1
16	O=C(Nc1ccc(F)cc1)N1CCCCN2[C@H](CO)[C@H](c3ccc(-c4cccc(F)c4)cc3)[C@@H]2C1
-11	C[C@@H]1CN([C@@H](C)CO)C(=O)c2cc(NC(=O)CCN3CCOCC3)ccc2O[C@H]1CN(C)C

# A portion of the library (hit frequency here may not be typical).
